FGF22 binding = binders of human FGF22 protein, primary screen, FGF22 synaptogenesis inhibitor project, biophysical, thermal shift, single point | Fibroblast growth factor 22 (Homo sapiens), Q9HCT0 | recombinant FGF22 thermal shift, SYPRO orange fluorescence; percent of sucrose octasulfate shift, DMSO zero | calls only at 9.99 µM | 340,000 tested, 1.5% active;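 active = melting point raised past a set limit in the mean and every replicate; three in four hits are not shown here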
Target sequence (Q9HCT0 whole entry, looked up): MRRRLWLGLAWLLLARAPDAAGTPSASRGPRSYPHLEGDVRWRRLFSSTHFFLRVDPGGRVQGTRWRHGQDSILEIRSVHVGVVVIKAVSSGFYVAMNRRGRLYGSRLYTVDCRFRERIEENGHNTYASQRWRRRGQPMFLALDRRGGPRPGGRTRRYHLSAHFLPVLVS
AF4-AF9 inh = inhibitors of AF4 peptide binding to AF9, primary screen, biochemical, AlphaScreen, biotin-AF4 peptide, FLAG-AF9, single point; Protein AF-9 (Homo sapiens), P42568; inhibition, % at 10 µM; 350,000 tested, 0.47% active; AID 651704, 2012;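 active = every replicate reaching a set inhibition limit, whatever the replicate mean, cut at about 25% in these data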;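 note: 0% = plate neutral control median and 100% = total signal loss; the record names both 10 and 1 µM as test concentration; the first replicate is given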
Target sequence (P42568 whole entry, looked up): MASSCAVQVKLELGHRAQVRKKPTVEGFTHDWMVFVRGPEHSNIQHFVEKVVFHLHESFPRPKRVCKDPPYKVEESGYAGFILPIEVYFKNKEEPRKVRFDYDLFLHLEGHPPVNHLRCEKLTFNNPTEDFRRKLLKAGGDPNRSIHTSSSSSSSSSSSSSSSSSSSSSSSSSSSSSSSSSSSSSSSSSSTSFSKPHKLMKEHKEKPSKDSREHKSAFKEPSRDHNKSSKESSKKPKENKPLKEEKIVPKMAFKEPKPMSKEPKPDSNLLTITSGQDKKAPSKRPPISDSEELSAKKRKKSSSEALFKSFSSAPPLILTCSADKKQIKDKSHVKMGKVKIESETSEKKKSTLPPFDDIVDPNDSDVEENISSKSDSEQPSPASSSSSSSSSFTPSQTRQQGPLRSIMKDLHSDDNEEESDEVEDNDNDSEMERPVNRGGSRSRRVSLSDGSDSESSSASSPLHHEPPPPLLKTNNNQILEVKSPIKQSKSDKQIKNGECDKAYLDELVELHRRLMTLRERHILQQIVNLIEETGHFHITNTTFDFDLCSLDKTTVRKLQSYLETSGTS
rRNA inh HTS = reduced GFP signal of wild-type E. coli, primary screen, bacterial rRNA inhibitor project, GFP/RFP fluorescence, OD600, single point. E. coli WT GFP vs humanized-ribosome RFP mutants, 24 h; stronger effect = lower value; DMSO median 0, no signal -100. GFP signal change (wild-type ribosome), % (concentration not given with the values). 350,000 tested, 1.6% active. AID 720706, 2013;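 active = significant combined selectivity score with lowered wild-type GFP, culture density cut under 30%, mutant RFP and density less affected; inactive = any of these conditions unmet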; note: one replicate is shown; some compounds called inactive have numbers as strong as hits
rRNA inh HTS OD600 = also measured in rRNA inh HTS; calls as there; OD600 change, %; measured here: OD600 growth;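 optical density of the mix in the first replicate; 0 = DMSO median and -100 = no signal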
rRNA inh HTS RFP = also measured in rRNA inh HTS; calls as there; RFP signal change, %; measured here: RFP humanized mutant strains;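 first replicate; 0 = DMSO median and -100 = no signal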
* hit, by the source's call; i = inactive; & = joins results of further samples.

SMILES	FGF22 binding	AF4-AF9 inh	rRNA inh HTS	rRNA inh HTS OD600	rRNA inh HTS RFP
O=C([C@H]1[C@H](CO)[C@H]2Cn3c(ccc(C4=CCCCC4)c3=O)[C@H]2N1Cc1nccs1)N1CCCCC1	i	0.4	-2	-11	0.1
C/C=C/c1ccc2c(c1)[C@@H]1[C@@H](CCN1C(=O)c1cnccn1)[C@H](CO)N2	i	-1.0	3	18	-0.3
C[C@@H]1CN([C@H](C)CO)S(=O)(=O)c2ccc(Br)cc2O[C@H]1CN(C)C(=O)C1CC1	i	-1.0&-0.3&-0.3	-6&-2	-4&3	-5.4&-3.2
O=C(Cc1ccccn1)N[C@H]1CC[C@@H](CCn2cc(-c3ccccc3)nn2)O[C@@H]1CO	i	14	-1	-10	-1.8
CC=Cc1ccc2n(c1=O)C[C@@H]1[C@@H](CO)[C@H](C(=O)NCC3CC3)N(Cc3ccccn3)[C@H]21 (mixture of isomers)	i	-4.1	2	7	2.2
C[C@@H]1CN([C@@H](C)CO)S(=O)(=O)c2ccc(-c3ccc(C(=O)N(C)C)cc3)cc2O[C@@H]1CN(C)C	i	-3.9	0	2	-0.3
C/C=C/c1cnc2c(c1)C(=O)N([C@@H](C)CO)C[C@H](C)[C@H](CN(C)S(=O)(=O)c1ccccc1F)O2	i	-6.9	5	2	-3.4
C/C=C/c1ccc([C@@H]2[C@@H](CO)N(C(=O)c3cnccn3)C23CN(C(=O)CC)C3)cc1	i	-1.0	1	6	0.6
O=C(C[C@H]1CC[C@H](NC(=O)Nc2ccc(C(F)(F)F)cc2)[C@@H](CO)O1)NCCN1CCCC1	i	5.6	-1	5	0.9
CC(C)NC(=O)Nc1ccc2c(c1)C(=O)N([C@@H](C)CO)C[C@H](C)[C@H](CN(C)C(=O)Nc1ccccc1)OCCCC[C@@H](C)O2	i	-0.1	8	8	-0.5
CC1=C(C(=O)N(C)C)CC(CC(=O)NCc2cccs2)C(=O)N1CCCN1CCCC1=O (stereo not given)	i	-2.2	25	15	1.1
C[C@@H]1CCCCO[C@H](CN(C)S(C)(=O)=O)[C@H](C)CN([C@@H](C)CO)C(=O)c2cc(NC(=O)Nc3ccccc3)ccc2O1	i	-0.4	-3	-4	0.1
C[C@@H]1CN([C@H](C)CO)C(=O)c2cc(-c3cccc(F)c3)cnc2O[C@H]1CN(C)C(=O)C1CCC1	i	-4.5	-4	-6	3.8
C[C@H]1CN([C@@H](C)CO)C(=O)c2cc(N(C)C)ccc2O[C@@H]1CN(C)S(=O)(=O)c1ccc(F)cc1	i	0.3	0	3	0.0
CO[C@@H]1CN(C)C(=O)c2ccc(NC(=O)C3CC3)cc2OC[C@@H](C)N(C)C[C@H]1C	i	-25	1	3	-1.0

The closing 5 compounds of the part above are carried over, then new ones follow:
SMILES	FGF22 binding	AF4-AF9 inh	rRNA inh HTS	rRNA inh HTS OD600	rRNA inh HTS RFP
CC1=C(C(=O)N(C)C)CC(CC(=O)NCc2cccs2)C(=O)N1CCCN1CCCC1=O (stereo not given)	i	-2.2	25	15	1.1
C[C@@H]1CCCCO[C@H](CN(C)S(C)(=O)=O)[C@H](C)CN([C@@H](C)CO)C(=O)c2cc(NC(=O)Nc3ccccc3)ccc2O1	i	-0.4	-3	-4	0.1
C[C@@H]1CN([C@H](C)CO)C(=O)c2cc(-c3cccc(F)c3)cnc2O[C@H]1CN(C)C(=O)C1CCC1	i	-4.5	-4	-6	3.8
C[C@H]1CN([C@@H](C)CO)C(=O)c2cc(N(C)C)ccc2O[C@@H]1CN(C)S(=O)(=O)c1ccc(F)cc1	i	0.3	0	3	0.0
CO[C@@H]1CN(C)C(=O)c2ccc(NC(=O)C3CC3)cc2OC[C@@H](C)N(C)C[C@H]1C	i	-25	1	3	-1.0
C[C@@H]1CN([C@H](C)CO)C(=O)c2cc(-c3cccc(C#N)c3)cnc2O[C@@H]1CN(C)C(=O)C1CCOCC1	i	-2.0	-2	0	0.4
CN1OC[C@@H]2CN[C@H](c3cccc(N4CCOCC4)c3)C[C@@H]21	i	-1.0	5	10	-1.5
CC1=C(C(=O)N2CCOCC2)CC(CC(=O)NCC2CCCCC2)C(=O)N1CCC1=CCCCC1 (stereo not given)	i	-1.1	-5	-7	-0.2
COc1ccc(C(=O)c2[nH]c(N)c(C(=O)NCCc3c[nH]c4ccccc34)c2-c2c(F)cccc2Cl)cc1	i	-3.0	-4	2	12
CC(C)NC(=O)N(C)C[C@H]1OCCCC[C@@H](C)Oc2ccc(NS(=O)(=O)c3ccc(F)cc3)cc2C(=O)N([C@@H](C)CO)C[C@H]1C	i	-2.7	-3	-3	-0.2
C[C@H](CO)N1C[C@H](C)[C@@H](CN(C)Cc2ccccc2C(F)(F)F)OCc2cn(nn2)CCCC1=O	i	1.9	-8	-11	0.4
COc1cccc(C#Cc2cnc3c(c2)C(=O)N([C@@H](C)CO)C[C@@H](C)[C@@H](CN(C)C(=O)C2CCC2)O3)c1	i	-1.2	-1	-6	1.9
O=C(C[C@H]1CC[C@@H]2[C@H](COC[C@@H](O)CN2C(=O)c2cnccn2)O1)NCc1ccc(Oc2ccccc2)cc1	i	-0.4	-5	2	-0.4
C[C@H](CO)N1C[C@H](C)[C@@H](CN(C)Cc2ccccc2)OCCCC[C@H](C)Oc2ccc(N(C)C)cc2C1=O	i	5.7&5.7	8&2	10&5	-1.5&-1.8
O=C(NCC1CCCCC1)[C@H]1[C@H](CO)[C@H]2Cn3c(cccc3=O)[C@H]2N1C(=O)CC1CC1	i	-1.3	-2	6	2.9
CS(=O)(=O)Nc1ccc2c(c1)[C@@H]1C[C@H](CC(=O)NCc3ccc(Oc4ccccc4)cc3)O[C@@H](CO)[C@@H]1O2	i	-1.0	-2	1	-2.7
O=S1(=O)CC(N2CCSCC2)CN1Cc1cn(Cc2ccccc2)nn1 (stereo not given)	i	-3.7	14	13	0.2
CC(C)C(NS(=O)(=O)c1ccccc1)C(=O)OCC(=O)NNC(=O)c1ccccc1 (stereo not given)	i	-39	12	8	1.1
C[C@H](CO)N1C[C@H](C)[C@@H](CN(C)Cc2ccc(C(=O)Nc3ccccc3N)cc2)Oc2ccc(NS(=O)(=O)c3ccc(Cl)cc3)cc2CC1=O	i	-15	1	7	2.6
CCCn1cnnc1CNC(=O)[C@H]1O[C@@H](n2cnc3c(N)ncnc32)[C@H](O)[C@@H]1O	i	-2.6	0	1	-3.5
COc1ccc(S(=O)(=O)N(C)C[C@@H]2OCCCC[C@H](C)Oc3ccc(NC(=O)Nc4cccc5ccccc45)cc3C(=O)N([C@H](C)CO)C[C@@H]2C)cc1	i	-18	0	0	-1.2
C[C@@H]1CCCCO[C@@H](CN(C)S(=O)(=O)c2ccc(Cl)cc2)[C@@H](C)CN([C@H](C)CO)C(=O)c2cc(NS(C)(=O)=O)ccc2O1	i	1.4	-1	-1	-2.1
COCC(=O)N1CCCCN2[C@@H](CO)[C@@H](c3ccc(C#Cc4ccccc4)cc3)[C@@H]2C1	i	1.3	3	4	-1.3
FC(F)(F)C(F)(F)c1nc2nc(Cl)c(Cl)nc2[nH]1	i	-0.5	-6	5	7.2
COC(=O)[C@@]12C[C@@H](CC(=O)N3CCCC3)C(=O)N(CCc3ccc(OC)c(OC)c3)C1=CCC(C)(C)C2	i	-1.7	-1	-1	1.1
CNC[C@H]1Oc2ccc(NS(=O)(=O)c3ccc(C)cc3)cc2C(=O)N([C@H](C)CO)C[C@@H]1C	i	-4.8	4	2	0.6
COc1ccc(NC(=O)Nc2cccc3c2O[C@H](CN(C)Cc2ccc4c(c2)OCO4)[C@@H](C)CN([C@H](C)CO)C3=O)cc1	i	4.1	-8	-1	0.4
COc1cc(Nc2ncc3c(n2)CCN(C(=O)Nc2ccc(C(C)C)cc2)C3)cc(OC)c1OC	i	5.9	-20	-33	-0.4
CC(=O)N(C)C[C@@H]1Oc2ncc(C#Cc3cccc(F)c3)cc2C(=O)N([C@H](C)CO)C[C@H]1C	i	1.0	2	-6	-4.3
C[C@H](CO)N1C[C@H](C)[C@@H](CN(C)S(=O)(=O)c2ccc(F)cc2)Oc2ccc(NS(=O)(=O)c3ccc(Cl)cc3)cc2C1=O	i	-0.7	-2	-8	1.3
CC1(C(=O)NS(=O)(=O)c2ccc3c(c2)CCO3)CCN1C(=O)C1(c2ccc(Cl)cc2)CCC1 (stereo not given)	i	-1.7	-8	1	0.1
O=C(C[C@@H]1CC[C@@H]2[C@H](COC[C@@H](O)CN2Cc2cccc(C(F)(F)F)c2)O1)NCc1ccc(F)cc1	i	0.4	-7	-40	9.2
C[C@@H]1CN([C@H](C)CO)C(=O)c2cc(NC(=O)NC3CCCCC3)ccc2O[C@@H](C)CCCCO[C@@H]1CN(C)S(=O)(=O)c1cccs1	i	-1.4	-3	7	-0.9
COc1ccc(CCNC(=O)c2ccc(Cl)c(S(=O)(=O)N3CCCC3)c2)cc1	i	-2.0	-29*	-23*	5.7*
CC1(C(=O)NS(=O)(=O)c2ccc(Br)cc2)CCN1C(=O)c1cccc(F)c1 (stereo not given)	i	-2.2	1	7	0.0
CN1CCCCN2[C@@H](CO)[C@H](c3ccc(C#CC4(O)CCCC4)cc3)[C@@H]2C1	i	0.4	7	7	-4.4
Cc1ccc(S(=O)(=O)Nc2ccc3c(c2)CC(=O)N([C@H](C)CO)C[C@@H](C)[C@@H](CN(C)C(=O)Nc2ccc(F)cc2)O3)cc1	i	-0.6	2	7	3.3
O=C(c1ccccc1F)N1CC(=O)N2[C@H](C1)[C@@H](c1ccc(-c3ccc(F)cc3)cc1)[C@@H]2CO	i	0.2	-40	-71	-1.4
CO[C@H]1CN(C)C(=O)c2ccc(NS(=O)(=O)c3cn(C)cn3)cc2OC[C@H](C)N(C)C[C@@H]1C	i	-2.6	1	4	2.9
CNC(=O)C[C@@H]1CC[C@@H]2[C@@H](COc3ccc(NC(=O)c4cc(F)cc(F)c4)cc3C(=O)N2C)O1	i	-2.2	6	-10	0.8
C[C@H](CO)N1C[C@H](C)[C@@H](CN(C)S(=O)(=O)c2cccs2)OCCCC[C@H](C)Oc2ccc(N(C)C)cc2C1=O	i	5.6	-5	-5	-1.0
C[C@@H](NC(=O)C[C@@H]1CC[C@@H]2[C@H](COc3ccc(NC(=O)C4CCOCC4)cc3C(=O)N2C)O1)c1ccccc1	i	-3.3	3	11	-2.0
COc1ccccc1-c1ccc([C@H]2[C@H](CO)N3CCCCN(C(=O)NC4CCCC4)C[C@@H]23)cc1	i	8.3	-1	-6	11
CC1CN(Cc2ccccc2)C(=S)N(c2ccccc2)C1=O (stereo not given)	i	-0.1	-3	-6	2.4
CCC(=O)N1CC2(C1)[C@@H](c1ccc(-c3ccccc3C)cc1)[C@@H](CO)N2C(C)=O	i	0.6	-6	-10	0.3
COc1ccc(CN(C)C[C@H]2Oc3ccc(NS(=O)(=O)c4c(C)noc4C)cc3CC(=O)N([C@H](C)CO)C[C@H]2C)cc1	i	-4.1	-3	-11	-1.1
CO[C@@H]1CN(C)C(=O)c2ccc(NC(C)=O)cc2OC[C@H](C)N(Cc2cncnc2)C[C@H]1C	i	-1.7	5	3	1.1
CN1c2ccc(-c3ccccc3F)cc2[C@H]2[C@H](CCN2S(=O)(=O)c2ccccc2)[C@H]1CO	i	8.4	4	13	6.7
C[C@@H]1CCCCO[C@@H](CN(C)Cc2ccc3c(c2)OCO3)[C@@H](C)CN([C@H](C)CO)C(=O)c2cc(NS(C)(=O)=O)ccc2O1	i	-4.3	1	6	-3.1
C[C@H](NC(=O)C[C@H]1C=C[C@H](NC(=O)C2CCC2)[C@@H](CO)O1)c1ccccc1	i	-11	1	1	0.3
C[C@@H]1CN([C@@H](C)CO)C(=O)CCCn2cc(nn2)CO[C@H]1CN(C)C(=O)c1cc(-c2ccccc2)on1	i	2.0&-0.8	0	0	-1.2
O=C(COC(=O)c1ccc(F)cc1F)Nc1ccc(S(=O)(=O)N2CCOCC2)cc1	i	3.1	7	15	-0.3
C[C@@H]1CN([C@@H](C)CO)C(=O)c2c(c3ccccc3n2C)-c2ccccc2CO[C@@H]1CN(C)Cc1cccc2c1OCCCO2	i	14	0	-8	11
C[C@@H](NC(=O)C[C@H]1CC[C@H](NS(=O)(=O)c2cccc(F)c2)[C@@H](CO)O1)c1ccccc1	i	0.0	-2	-1	0.4
c1ccc2c(c1)COc1c3ncccc3nn1-2	i	-8.3	1	4	0.5
CC(C)CC#Cc1ccc2c(c1)O[C@H](CN(C)S(=O)(=O)c1cccc(F)c1)[C@H](C)CN([C@H](C)CO)S2(=O)=O	i	-2.4	5	4	-2.0

Two consecutive entries from above, for reference:
SMILES	FGF22 binding	AF4-AF9 inh	rRNA inh HTS	rRNA inh HTS OD600	rRNA inh HTS RFP
c1ccc2c(c1)COc1c3ncccc3nn1-2	i	-8.3	1	4	0.5
CC(C)CC#Cc1ccc2c(c1)O[C@H](CN(C)S(=O)(=O)c1cccc(F)c1)[C@H](C)CN([C@H](C)CO)S2(=O)=O	i	-2.4	5	4	-2.0

Some of the compounds tested (hit frequency here may not be typical).
